Lassa entry inh: inhibitors of Lassa virus binding or cell entry; Potency, µM (highest dose often 37.9 µM), for inactives: at the highest dose activity change, negative = inhibition, usual class: inhibitors; hit rate 1.2% among 300,000; Lassa virus pseudotype entry inhibition, cell reporter; control for the full effect not named in the record; active means well fitted inhibition curve with a large enough effect; inconclusive means small, poorly fitted or top-dose-only effect, or effect the other way; inactive means flat fitted curve, though single readings scatter; tested in HEK293 cells; further: on the % scale 0 is the no-effect control and ±100 the full control effect; nearly all actives have a fitted effect of over 50% in size; luciferase read-out
2A StopGo: FMDV 2A StopGo reporter, luciferase signal; human cells with a luciferase reporter of 2A StopGo recoding; control for the full effect not named in the record; Potency, µM (series often up to 57.9 µM), for inactives: at the highest dose signal change, negative = less light; hit rate 1.2% among 410,000; active = well fitted falling curve with a large enough effect; inconclusive = small, poorly fitted or top-dose-only effect; inactive = no such curve, though single readings can be large or run the other way; tested in HEK293T cells; further: on the % scale 0 is the no-effect control and ±100 the full control effect; nearly all actives have a fitted effect of over 45% in size; luciferase light after 4 h
Cruzain noTriton: cruzain (T. cruzi) inhibition without detergent | Potency, µM, inactives show max response, negative = inhibition, usual class: inhibitors | hit rate 2.3% among 200,000 | P25779 | AID 1476 | purified cruzain, Z-FR-AMC fluorescence, no detergent;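 further: plate controls were enzyme without inhibitor for no effect and buffer without enzyme for full effect; nearly all actives have a fitted effect of over 40% in size; top concentration of the series not given in the record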
Target sequence (P25779 123-467 limits assumed): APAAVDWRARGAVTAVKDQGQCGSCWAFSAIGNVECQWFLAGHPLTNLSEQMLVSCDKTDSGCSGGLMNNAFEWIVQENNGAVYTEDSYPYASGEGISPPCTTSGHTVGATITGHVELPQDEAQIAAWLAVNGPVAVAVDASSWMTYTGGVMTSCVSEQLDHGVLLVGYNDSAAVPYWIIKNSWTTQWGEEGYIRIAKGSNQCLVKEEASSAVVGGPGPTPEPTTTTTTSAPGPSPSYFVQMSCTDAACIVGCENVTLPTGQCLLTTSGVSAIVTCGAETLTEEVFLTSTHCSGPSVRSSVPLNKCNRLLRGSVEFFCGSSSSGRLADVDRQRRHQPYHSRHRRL
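Purified cruzain at 1.5 nM, pre-incubated 15 min with compound at room temperature in 100 mM sodium acetate pH 5.5, 5 mM DTT, 0.00005% Triton X-100. Reaction started with 2 uM Z-FR-AMC; AMC fluorescence increase over 60 s gives rate.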
RE007 growth inh: less growth of the S. pombe RE007 Vpr strain. S. pombe RE007 Vpr strain, BacTiter-Glo ATP luminescence, 24 h; control for the full effect not named in the record. Potency, µM (doses to about 92.2 µM), without a hit: at the highest dose activity change, negative = less growth. hit rate 0.21% among 360,000. AID 651644; active = well fitted falling curve with a large enough effect; inconclusive = small, poorly fitted or top-dose-only effect; inactive = no such curve, though single readings can be large or run the other way;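 further: on the % scale 0 is the no-effect control and ±100 the full control effect; nearly all actives have a fitted effect of over 50% in size; the assay follows cell death caused by Vpr and the record does not say whether a fall means rescue or toxicity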
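Fission yeast strain RE007, carrying one chromosomally integrated HIV-1 vpr copy, was seeded at OD 0.01 in PMG+AL medium with 23 nL pinned compound. After 24 h at 30 °C and 99% humidity, viability was read by BacTiter-Glo luminescence.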
MARV entry inh: inhibitors of Marburg virus binding or cell entry; Marburg virus pseudotyped entry inhibition, cell reporter; control for the full effect not named in the record; about a third of the inactives were read at about 46 µM; Potency, µM (top dose mostly 37.8 µM), inactives show at the top dose activity change, negative = inhibition, hits mostly inhibitors; hit rate 1.8% among 300,000; active = well fitted inhibition curve with a large enough effect; inconclusive = small, poorly fitted or top-dose-only effect, or effect the other way; inactive = flat fitted curve, though single readings scatter; tested in HEK293 cells; about a fifth of its hits are not listed in these tables; further: on the % scale 0 is the no-effect control and ±100 the full control effect; luciferase read-out
SARS PLP yeast: inhibitors of SARS-CoV papain-like protease in yeast | AID 485353 | Potency, µM (titrated, usually from 32.9 µM), without a hit: at the highest dose activity, positive = growth rescue | hit rate 0.19% among 330,000 | S. cerevisiae expressing SARS-CoV PLpro, growth rescue; control for the full effect not named in the record; active means well fitted rising curve with a large enough effect; inconclusive means small, poorly fitted or top-dose-only effect; inactive means no such curve, though single readings can be large or run the other way; further: 0% is about no effect; nearly all actives have a fitted effect of over 55% in size; growth read by luminescence after 48 h
Cruzain Triton: inhibitors of Trypanosoma cruzi cruzain with detergent; purified cruzain, Z-FR-AMC fluorescence, 0.01% Triton; Potency, µM, inactives show max response, negative = inhibition, hits mostly inhibitors; hit rate 0.43% among 200,000;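 further: plate controls were neutral wells for no effect and buffer without enzyme for full effect; nearly all actives have a fitted effect of over 40% in size; top concentration of the series not given in the record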
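Sodium acetate buffer (100 mM, pH 5.5) containing 5 mM DTT and 0.01% Triton X-100 hosted 1.5 nM cruzain and test compound for 15 min at room temperature. Cleavage of 2 uM Z-FR-AMC was then tracked by fluorescence.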
NS1 function inh: blocks influenza NS1 protein function | S. cerevisiae slowed by influenza A NS1, growth recovery by OD600 | Potency, µM (series often up to 46.1 µM), for the others: top-dose activity, positive = more growth | hit rate 0.4% among 270,000; active means well fitted rising curve with a large enough effect; inconclusive means small, poorly fitted or top-dose-only effect; inactive means no such curve, though single readings can be large or run the other way; further: nearly all actives have a fitted effect of over 50% in size
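In this qHTS, NS1 from influenza A is expressed in budding yeast, where it slows growth. Cells are switched from glucose to 2% galactose medium (pH 6.0, -URA), treated with compound, and growth recovery is read at OD600.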
* hit, by the source's call; ? = inconclusive; / = no result given; & = joins results of further samples; [ ] = remark or other dose. Unless noted, the call rests on the fitted dose curve; in most records, active means well fitted curve in the direction sought with a large enough effect; inconclusive means small, poorly fitted or top-dose-only effect, or another doubt; inactive means no such curve, though single readings can be large; an effect the other way counts as inactive or inconclusive. Potency means the concentration at half of the fitted maximal effect. Compounds were not picked by outcome (roughly 4.7% active in at least one column).

SMILES	Lassa entry inh	2A StopGo	Cruzain noTriton	RE007 growth inh	MARV entry inh	SARS PLP yeast	Cruzain Triton	NS1 function inh
O=C1OCCN1C(=O)[C@H]1[C@H](c2ccc(Cl)cc2)C(c2ccccc2)=NN1c1ccccc1	/	?	?	-12%	/	-4%	5.5%	/
O=C(Nc1nccs1)c1ccc(-c2ccccc2[N+](=O)[O-])o1	?	17%	/	-17%	?	-10%	/	-26%
Clc1ccc(Sc2oc(/C=N/n3cnnc3)cc2Br)cc1	-1%	-7%	26%	3%	12%	-8%	-5.2%	-6%
O=C(CCc1ccccc1)N(Cc1cccnc1)c1nc2ccc(F)cc2s1	-12%[46.1 µM]	5%	4%	/	/	/	-7.2%	/
CCOC(=O)c1cccc(NS(=O)(=O)c2ccc(-c3cnc(C4CC4)o3)cc2)c1	-24%[46.1 µM]	-1%	19%	/	/	/	-7.6%	/
CC(=O)N1c2ccc(S(=O)(=O)N3CCCC(C(=O)NCc4ccccc4Cl)C3)cc2CC1C (configuration not stated)	-28%[46.1 µM]	-17%	/	9%	?	0%	/	9%
CCOC(=O)c1sc(Nc2nc(C)cc(OC)n2)nc1C	/	-22%	/	-11%	/	0%	/	3%
CCOC(=O)c1sc2ncnc(N3CCN(C)CC3)c2c1C	/	3%	/	6%	/	1%	/	2%
C=CCn1c2ccccc2c2nnc(SC(CC)C(=O)Nc3nc(C)c(C(=O)OCC)s3)nc21 (configuration not stated)	4%	-10%	-9%	11%	20%	-19%	-3.2%	-4%
Cc1nc(N2CCOCC2)nc(N2CCCCC2)c1[N+](=O)[O-]	-29%	-23%	-3%	1%	?	4%	-6.0%	-29%
O=C(c1ccc2c(=O)n(Cc3ccco3)c(=S)[nH]c2c1)N1CCN(Cc2ccccc2)CC1	-9%	?	-10%	-11%	-27%	-2%	-2.1%	5%
COc1ccc(C2CCCN2C(=S)Nc2ccc(C)c(C)c2)cc1OC (configuration not stated)	12%[46.1 µM]	-5%	/	8%	13%[46.1 µM]	9%	/	/
COc1ccc(CNc2oc(COc3ccc(Cl)cc3)nc2C#N)cc1	7%	?	2%	7%	-23%	-17%	-4.3%	-45%
CC(C)c1cc(C(=O)NNC(=S)NCc2ccco2)c(O)c(C(C)C)c1	-1%	?	3%	14%	-16%	12%	-15%	-1%
N#Cc1c(NCCCO)nc(-c2ccco2)c2c1CCCC2	-14%	-23%	-7%	-10%	-10%[46.1 µM]	5%	16µM*	10%
O=C(COC(=O)Cc1ccsc1)NCC12CC3CC(CC(C3)C1)C2	-15%	6%	4%	6%	23%	-9%	-2.2%	-46%
CCN(CC)CCn1c(NS(=O)(=O)c2ccc(C)cc2)nc2ccccc21	0%	10%	/	23%	16%	-5%	/	/
C/C(=N\NC(=S)NC(C)C)c1ccc(Cl)c([N+](=O)[O-])c1	/	-9%	/	5%	/	-1%	/	2%
CNC(=S)Nc1cc(OC)ccc1OC	2%	1%	-4%	-4%	17%	3%	2.3%	3%
CCOC(=O)Cc1cc(-c2ccc(OC)cc2)nc2ccc3ccccc3c12	15%	-24%	6%	-2%	-17%	19%	-0.6%	10%
O=C(CSc1nc2ccccc2c(=O)[nH]1)Nc1nc(-c2ccc(Br)cc2)cs1	-17%	3%	/	1%	-6%&-6%	-6%	/	14%
Cc1noc(C(=O)NCc2ccco2)c1Cl	/	-6%	5%	0%	/	-1%	-2.8%	-2%
Cc1ccc(-n2c(-c3ccccc3)nnc2-c2cccs2)cc1	-5%	/	?	1%	-1%	-4%	-3.3%	-2%
CCOC(=O)c1ccc(NC(=O)c2cn(-c3ccccc3)nc2-c2ccc(C)cc2)cc1	13%[46.1 µM]	-22%	-1%	/	/	/	-1.8%	/
Cc1ccc(S(=O)(=O)CCc2nnc(NC(=O)C3CCCO3)s2)cc1 (configuration not stated)	13%	1%	5%	13%	6%[46.1 µM]	-1%	3.3%	1%
COc1ccc(C(=O)NNc2ncnc3c2cnn3-c2ccccc2)cc1	-9%[46.1 µM]	-9%	-8%	/	/	/	0.0%	/
Cc1ccc(-c2nc(CS(=O)CC(=O)NCc3ccccc3Cl)c(C)o2)cc1 (configuration not stated)	8%[46.1 µM]	28%	-2%	/	3%[46.1 µM]	/	-9.3%	/
COc1ccc(CCN(C(=O)c2snc(C(N)=O)c2N)C(C(=O)NCC2CCCO2)c2ccc(F)cc2)cc1OC (configuration not stated)	-28%	-11%	/	-17%	3%[46.1 µM]	12%	/	-2%
CN(Cc1ccccc1F)c1ncnc2sccc12	?	0%	/	12%	?	4%	/	-6%
COc1ccccc1NC(=O)CCC(=O)N1CC(C)Oc2ccc(C)cc21 (configuration not stated)	2%[46.1 µM]	-7%&-18%	-1%	10%	-7%[46.1 µM]	-7%	-2.9%	-7%
CC(=O)O/C(=C1\CC2C3CC=C4CC(OC(C)=O)CCC4(C)C3CCC2(C)C1=O)C(F)(F)F (configuration not stated)	?	0%	/	-19%	-9%	/	/	/
CCc1ccccc1NC(=O)CSc1nnc(CNC(=O)c2ccco2)n1C	/	-4%	/	18%	?	2%	/	1%
CC/C(=N\N1CCCCC1)c1c(O)[nH]c(=O)[nH]c1=O	-17%	-18%	/	17%	?	-4%	/	4%
Cc1cc(C)cc(OCC(=O)NCc2cc(C)nc3ccccc23)c1	/	?	/	-6%	/	0%	/	-5%
CC1Cc2ccccc2N1C(=O)COC(=O)c1cc(Br)ccc1O (configuration not stated)	2%	-23%	/	21%	2%[46.1 µM]	-2%	/	/
O=C1CC(NNc2ccccc2)C(=O)N1c1cccc(Cl)c1 (configuration not stated)	?	0%	-28%	-3%	4%	-3%	-1.2%	18%
Cc1ccc(-c2n[nH]c(=S)n2C)cc1Cl	5%	-15%	/	-14%	11%[46.1 µM]	1%	/	15%
CNC(=O)C(=O)NCC1OCCN1S(=O)(=O)c1ccc([N+](=O)[O-])cc1 (configuration not stated)	3%	-16%	13%	-6%	?	-16%	-0.7%	10%
O=C(C[n+]1cc(-c2ccccc2)n2c1CCC2)c1cccs1	7%[46.1 µM]	-7%	/	-11%	?	0%	/	/
COc1ccc(S(=O)(=O)N2CCCC(C(=O)NCc3ccco3)C2)cc1Cl (configuration not stated)	4%	/	-10%	12%	0%	-10%	-2.6%	-9%
Cc1cc(C(=O)Nc2ccc(S(=O)(=O)N3CCOCC3)cc2)c(C)o1	-6%	-12%	/	-7%	5%	-1%	/	5%
CCOc1ccc(C(=O)CCC(=O)NNC(=O)c2ccccc2O)cc1	-26%	-14%	/	0%	23%[46.1 µM]	?	/	/
COc1ccc(O)c(-c2[nH]ncc2C(=O)c2cccc(C)c2)c1	/	3%	/	-3%	/	1%	/	3%
Nc1ccccc1SCC(=O)Nc1cccc2ccccc12	-4%[46.1 µM]	6%	/	-15%	5%[46.1 µM]	-2%	/	/
Cc1c(C(=O)NCc2ccccn2)sc2nc(-c3ccc(F)cc3)cn12	-22%	-19%	8%	12%[3.69 µM]	?	-7%	-15%	-11%
COc1cccc(NS(=O)(=O)c2c(C)n(C)c(=O)n(C)c2=O)c1	/	2%	22%	1%	/	4%	4.3%	4%
COc1ccccc1C(=O)Nc1ccnn1C1CCN(Cc2csc(C(C)=O)c2)CC1	/	-3%	/	-4%	/	-2%	/	-4%
COCCn1c(NCc2ccc(C)cc2)nc2c1c(=O)[nH]c(=O)n2C	-2%	-5%	2%	2%	4%	?	-1.4%	-2%
O=C(Nc1ccccc1F)c1ccc(CSc2ncccn2)cc1	?	25%	/	-6%	?	-1%	/	1%
CC(=O)c1c(C)[nH]c(C(=O)N2CCC3(CC2)OCCO3)c1C	11%	14%	-5%	-6%	20%	-2%	3.7%	0%
Additional structures follow:
SMILES	Lassa entry inh	2A StopGo	Cruzain noTriton	RE007 growth inh	MARV entry inh	SARS PLP yeast	Cruzain Triton	NS1 function inh
CN(C)S(=O)(=O)c1ccc(C(=O)Nc2nnc(SCc3cccc(F)c3)s2)cc1	?	-14%	4µM*	8%	1%	4%	-0.7%	10%
COc1ccc(CC(=O)Nc2c3c(nn2-c2cccc(Cl)c2)CS(=O)(=O)C3)cc1	-15%	-12%	-8%	13%	?	2%	-1.6%	-18%
Nc1cccc(-c2cc3ccccc3oc2=O)c1	?	-7%	/	?	/	-3%	/	11%
COC(=O)[C@H](C)NC(=O)NCc1ccc(F)cc1	14%	-16%	-2%	-7%	-4%	1%	-2.6%	-12%
COc1ccc(-n2nnnc2SC(C)C(N)=O)cc1 (configuration not stated)	0%	/	0%	-7%	1%	-6%	1.0%	-2%
COc1ccc2cc(CN(CC3COCCO3)S(=O)(=O)c3c(C)cc(C)cc3C)c(=O)[nH]c2c1 (configuration not stated)	/	/	?	/	/	0%	-4.6%	2%
Cc1ccc2occ(/C=N/NC(=O)c3ccc(O)cc3)c(=O)c2c1	/	?	/	0%	/	-3%	/	4%
COC(=O)[C@@H](NC(=O)Nc1ccc(OC)cc1)C(C)C	6%	12%	-1%	-5%	2%	-1%	4.2%	11%
O=C(N/N=C1\CCc2ccccc21)c1ccncc1	-3%	48%[activator]	-9%	10%	25%	2%	-4.3%	-3%
CCCCNC(=O)c1onc(CSc2ccc(OC)cc2)c1C(=O)O	/	-14%	2%	-2%	/	-4%	1.5%	5%
COc1ccccc1C(=O)Nc1c(C(=O)N(C)c2ccccc2)sc2nc(C)cc(C)c12	16%[46.1 µM]	-12%	12%	/	1%[46.1 µM]	/	-1.0%	/
CNc1oc(-c2ccc(OCc3ccccc3)cc2)nc1C#N	7%	23%	0%	5%	-21%	3%	-0.3%	-8%
O=c1[nH]c(CSc2ncc(C(F)(F)F)cc2Cl)nc2ccccc12	15%[46.1 µM]	7%	/	5%	?	0%	/	-2%
COC(=O)c1nccnc1N	1%[46.1 µM]	-25%	/	-2%	?	/	/	/
COc1ccccc1NC(=O)CC(c1ccc(F)cc1)c1ccco1 (configuration not stated)	?	-28%	/	2%	4%	-1%	/	-7%
CCC(=O)N1CCc2cc(OC)c(OC)cc2C1COc1ccc2c(C)cc(=O)oc2c1 (configuration not stated)	6%[46.1 µM]	7%	2%	/	-9%[46.1 µM]	/	2.2%	/
